Vif TR-FRET: inhibitors of Vif binding to APOBEC3G peptide, primary screen, biochemical, TR-FRET, GST-Vif 1-94, biotin-A3G peptide, dose response retest (AID 1117319); Virion infectivity factor (Human immunodeficiency virus type 1 group M subtype B (isolate …; TR-FRET GST-Vif / biotin-A3G peptide binding; higher % means a stronger effect; test concentration not given here; strong numbers were not always called active; inhibition, %, or IC50 in µM where a hit was titrated; actives 0.57% (n = 260,000);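 active = above the screen mean plus three standard deviations and confirmed in dose response; inconclusive = results disagree or hit not tested in dose response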;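 note: Vif residues 1-94 fused to GST binding biotinylated APOBEC3G peptide 110-148; 0% = full assay without inhibitor and 100% = GST in place of GST-Vif; retest series ran down from 100 µM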
Ecoli growth: E. coli growth inhibition, primary screen, OD600; OD600 absorbance (no concentration beside the values); AID 1053175, 2014; actives 0.21% (n = 330,000); Escherichia coli growth, 23 h; stronger effect = lower value;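 active = OD600 absorbance below the run mean of sample wells minus 3.6 SD, in any replicate, cut at about 0.56 in these data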;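 note: stock transfer was 300 nL into about 60 µL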
FGF22 binding: binders of human FGF22 protein, primary screen, FGF22 synaptogenesis inhibitor project, biophysical, thermal shift, single point; Fibroblast growth factor 22 (Homo sapiens), Q9HCT0; recombinant FGF22 thermal shift, SYPRO orange fluorescence; percent of sucrose octasulfate shift, DMSO zero; calls only at 9.99 µM; actives 1.5% (n = 340,000); AID 651658, 2012;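 active = melting point raised past a set limit in the mean and every replicate; inconclusive = no clear call; three in four hits are not shown here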
Target sequence (Q9HCT0 whole entry, looked up): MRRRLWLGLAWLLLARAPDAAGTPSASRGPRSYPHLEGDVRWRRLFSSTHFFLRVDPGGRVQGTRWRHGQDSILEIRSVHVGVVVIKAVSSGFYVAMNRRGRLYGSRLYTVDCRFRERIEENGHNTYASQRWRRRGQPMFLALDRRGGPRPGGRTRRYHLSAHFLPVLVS
UCH37 inh: inhibitors of human UCH37 deubiquitinase, primary screen, biochemical, Ub-AMC cleavage, fluorescence; Ubiquitin carboxyl-terminal hydrolase isozyme L5 (Homo sapiens), Q9Y5K5; purified proteasome/UCH37; inhibition, % (no concentration beside the values); actives 0.33% (n = 330,000); AID 588478, 2011;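 active = mean of two replicates above 20%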;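 note: 0% = compound-free wells with enzyme and 100% = wells lacking proteasome; stock transfer was 100 nL into about 20 µL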
Target sequence (Q9Y5K5 whole entry, looked up): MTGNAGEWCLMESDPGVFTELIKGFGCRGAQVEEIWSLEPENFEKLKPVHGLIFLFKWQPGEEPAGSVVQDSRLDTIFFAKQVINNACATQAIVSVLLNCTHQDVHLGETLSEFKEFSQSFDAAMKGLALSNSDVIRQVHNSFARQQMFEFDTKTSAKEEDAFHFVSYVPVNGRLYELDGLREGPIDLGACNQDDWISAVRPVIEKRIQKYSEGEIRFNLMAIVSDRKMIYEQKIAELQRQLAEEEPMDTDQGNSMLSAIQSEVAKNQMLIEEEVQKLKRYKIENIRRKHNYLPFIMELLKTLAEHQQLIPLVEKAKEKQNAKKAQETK
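Material: human UCH37 enzyme supplied as purified proteasome complex / Amount: 0.15 nM proteasome as dispensed / Buffer or medium: pH 7.4 Tris-HCl (50 mM) with ovalbumin, ATP-MgCl2, DTT / Times: preincubation 30 min, reaction 25 min, room temperature / Technique: AMC fluorescence from Ub-AMC cleavage, excitation 355 nm, emission 460 nm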
RanGTP-Imp inh: inhibitors of RanGTP-importin-beta interaction, primary screen, biochemical, FRET, CFP-Ran, YFP-importin-beta, homogeneous | Ran GTPase (GTP-bound) - importin-beta complex | cell-free CFP-Ran/YFP-importin-beta FRET ratio | inhibition, % (concentration not given with the values) | actives 1.1% (n = 300,000);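 active = most replicates above 15%; inconclusive = exactly half above 15%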;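 note: 0% = DMSO wells and 100% = Ran loaded with GDP instead of GTP; wells of about 40 µL received 100 nL stock; the first replicate is given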
HNF4A DNA FP: change in binding of human HNF4A to DNA, primary screen, biochemical, fluorescence polarization, FITC-DNA. 1 h. Hepatocyte nuclear factor 4-alpha (Homo sapiens), P41235. actives 0.3% (n = 360,000). activity change, % at 10 µM. AID 1224865, 2016; in the data active = activity change above about 30%, passing the limit was not always enough;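 note: controls were the assay level and a saturating level of protein; the project sought stronger binding though the title names inhibitors; some compounds called inactive have numbers as strong as hits; positive values seem to mean higher polarization but the record does not say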
AF4-AF9 inh: inhibitors of AF4 peptide binding to AF9, primary screen, biochemical, AlphaScreen, biotin-AF4 peptide, FLAG-AF9, single point | AID 651704, 2012 | actives 0.47% (n = 350,000) | Protein AF-9 (Homo sapiens), P42568 | inhibition, % at 10 µM;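 active = every replicate reaching a set inhibition limit, whatever the replicate mean, cut at about 25% in these data; inconclusive = mean inhibition reaches that limit but some replicates miss it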;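 note: 0% = plate neutral control median and 100% = total signal loss; the record names both 10 and 1 µM as test concentration; the first replicate is given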
Target sequence (P42568 whole entry, looked up): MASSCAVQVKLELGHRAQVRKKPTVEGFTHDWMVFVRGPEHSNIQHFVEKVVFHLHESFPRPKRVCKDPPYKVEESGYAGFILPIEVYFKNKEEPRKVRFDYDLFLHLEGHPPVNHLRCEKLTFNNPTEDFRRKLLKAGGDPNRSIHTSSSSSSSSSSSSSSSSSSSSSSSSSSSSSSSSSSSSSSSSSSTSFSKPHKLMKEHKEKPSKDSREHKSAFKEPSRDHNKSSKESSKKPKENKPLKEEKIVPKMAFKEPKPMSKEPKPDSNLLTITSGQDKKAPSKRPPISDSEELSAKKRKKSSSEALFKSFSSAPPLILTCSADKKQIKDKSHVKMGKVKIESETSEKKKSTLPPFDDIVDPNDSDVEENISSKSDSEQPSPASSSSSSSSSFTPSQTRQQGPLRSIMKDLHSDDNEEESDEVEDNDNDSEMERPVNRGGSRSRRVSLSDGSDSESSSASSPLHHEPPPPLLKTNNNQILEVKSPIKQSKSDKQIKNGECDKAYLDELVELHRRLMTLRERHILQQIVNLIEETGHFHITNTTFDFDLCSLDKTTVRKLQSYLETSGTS
Active calls of the source: *; i = inactive; u = inconclusive; x = not tested or not shown. This is a subset; the hit share may differ from the screen's.

SMILES	Vif TR-FRET	Ecoli growth	FGF22 binding	UCH37 inh	RanGTP-Imp inh	HNF4A DNA FP	AF4-AF9 inh
COc1ccc(C2=NOC(C(=O)N3CCN(c4ccccc4OC)CC3)C2)cc1 (stereo not drawn)	1%	0.79	i	0.3	-2.3	4.2	-2.3
COc1cc(/C=N/NC(=O)CSc2cc(C)c(Br)cc2C)ccc1O	0%	x	x	x	7.5	-0.9	x
COc1ccc(CCNC(=O)Nc2ccc(F)cc2F)cc1OC	-3%	0.69	i	1.9	7.5	-0.1	-1.4
COc1ccccc1NC(=O)/C=C/c1cc([N+](=O)[O-])ccc1OC(F)F	4%	0.7	i	1.5	1.0	-0.1	0.9
CSCCC(NS(=O)(=O)c1c(Cl)cccc1Cl)C(=O)O (stereo not drawn)	-2%	0.72	x	4.2	-2.3	7.9	-0.8
N#CCc1ccc(NC(=O)CSc2nnc(C3CC3)n2C2CC2)cc1	3%	0.64	i	1.3	x	-0.3	-13
COCCN(Cc1nc(C(c2ccccc2)c2ccccc2)no1)C(C)C	x	0.72	i	4.6	5.7	-4.0	1.6
COc1cc(OC)c(NC(=O)CCc2nc(-c3ccc(C)cc3)no2)cc1Cl	25%	0.77	x	4.3	0.6	-1.2	x
COc1ccc(S(=O)(=O)Nc2cccnc2)c(Cl)c1Cl	x	x	i	x	-1.7	4.4	-0.2
O=C(O)c1cccc(-c2ccc(/C=c3/sc4nc5ccccc5n4c3=O)o2)c1	u	x	i	x	-13	38*	-4.0
O=C(Nc1cccc2ccccc12)c1cccc(F)c1	2%	0.67	i	2.0	2.5	8.1	-4.9
COc1ccc(-n2c(C)n[nH]c2=O)cc1	-6%	0.69	x	-1.2	5.0	1.4	x
CCN(CC(=O)NC1CCS(=O)(=O)C1)S(=O)(=O)c1ccccc1Cl (stereo not drawn)	3%	0.73	x	4.7	-0.2	-2.4	-0.5
COC(=O)c1cc(OC)c(OC)cc1NCC(=O)Nc1ccc(C)cc1	16%	0.7	i	-29	-1.1	-3.1	9.9
Cc1[nH][nH]c(=O)c1C(c1ccc(-c2cccc(Cl)c2)o1)c1c(C)[nH][nH]c1=O	24%	0.6	x	81*	4.1	-1.7	x
CC1CC(NC(=O)/C(C#N)=C/c2ccc[nH]2)CC(C)(C)C1 (stereo not drawn)	-9%	0.65	i	7.4	9.5	-1.1	x
CCOC(=O)Cc1nn(CCc2ccccn2)c(=O)c2ccccc12	-9%	0.77	x	-1.5	-2.2	-0.8	x
CCN1CCN(Cc2ccc(NC(=O)Nc3ccccc3Cl)cc2)CC1	3%	0.7	i	2.6	1.4	3.9	-0.9
COc1ccc(C(=O)N=c2nc3ccccn3s2)cc1	-11%	0.72	x	2.2	-1.9	-3.4	x
O=C(NC(=S)Nc1ccc(Oc2ccc(Cl)cc2)cc1)c1ccccc1	-8%	0.74	x	47*	1.9	6.2	x
CCN(CC)C(=O)Cn1cc(C(=O)C(=O)N(CC)C2CCCCC2)c2ccccc21	x	0.71	i	5.2	1.8	-3.4	-4.0
Cc1ccc(-c2[nH]c3ccccc3c2C(C[N+](=O)[O-])c2ccco2)cc1 (stereo not drawn)	11%	0.82	x	-4.9	0.4	-2.6	x
COC(C[C@@H]1O[C@H]1C(=O)[C@@H](C)OCc1ccccc1)OC	x	x	i	3.0	5.0	8.3	-1.3
NS(=O)(=O)c1ccc(CNC(=O)c2ccccc2SCC(=O)N2CCCC2)cc1	-5%	0.6	i	1.3	0.1	0.8	-2.0
COCCNC(=O)c1ccc2c(c1)C(=O)c1ccccc1-2	2%	0.63	i	5.0	u	0.0	0.8

Sorted by count of non-hydrogen atoms (smallest number first): part of the list above.
SMILES	Vif TR-FRET	Ecoli growth	FGF22 binding	UCH37 inh	RanGTP-Imp inh	HNF4A DNA FP	AF4-AF9 inh
CC1CC(NC(=O)/C(C#N)=C/c2ccc[nH]2)CC(C)(C)C1 (stereo not drawn)	-9%	0.65	i	7.4	9.5	-1.1	x
CCN(CC(=O)NC1CCS(=O)(=O)C1)S(=O)(=O)c1ccccc1Cl (stereo not drawn)	3%	0.73	x	4.7	-0.2	-2.4	-0.5
N#CCc1ccc(NC(=O)CSc2nnc(C3CC3)n2C2CC2)cc1	3%	0.64	i	1.3	x	-0.3	-13
Cc1[nH][nH]c(=O)c1C(c1ccc(-c2cccc(Cl)c2)o1)c1c(C)[nH][nH]c1=O	24%	0.6	x	81*	4.1	-1.7	x

Continued:
SMILES	Vif TR-FRET	Ecoli growth	FGF22 binding	UCH37 inh	RanGTP-Imp inh	HNF4A DNA FP	AF4-AF9 inh
O=C(c1ccco1)N1CCN(C(=O)c2ccc(-c3ccc(Cl)cc3)o2)CC1	-12%	0.64	i	1.8	x	5.0	-1.2
OCC1OC(n2ccc3c(SCc4ccccc4)ncnc32)C(O)C1O (stereo not drawn)	1%	x	i	x	x	-1.9	1.6
Cc1nc(=O)c(-c2ccccc2)c(C)n1CCO	-3%	0.68	x	1.9	-4.0	0.4	x
C=CCn1c(CCNC(=O)c2cccs2)nnc1SCC(=O)c1ccc(Br)cc1	4%	0.7	x	1.9	0.0	0.2	x
COc1ccccc1C(=O)Nc1nnc(C)s1	2%	0.69	x	-0.4	5.3	12	x
Cn1c(=O)c2c(ncn2CC(=O)O)n(C)c1=O	x	x	i	x	x	-0.7	-3.5
CCC(=O)Nc1ccc(NC(=S)NC(=O)/C=C/c2ccccc2)cc1	-2%	0.69	x	11	-0.1	-0.4	x
O=C1OC(c2ccccc2)(c2ccc(O)cc2)c2ccccc21 (stereo not drawn)	-1%	0.68	i	2.8	x	-3.1	-2.1
O=C(Nc1ccc(C(=O)N2CCCCC2)cc1)c1cccc([N+](=O)[O-])c1	x	0.69	i	2.2	3.5	-2.6	-5.4
O=C1C2C(c3ccccc3)C=CC(c3ccccc3)C2C(=O)N1CCCO (stereo not drawn)	1%	0.79	x	1.1	-0.7	-1.2	x
COC(=O)C1C2C=CC3(CN(Cc4ccco4)C(=O)C13)O2 (stereo not drawn)	5%	0.65	x	2.8	11	-1.4	x
COC(=O)c1ccc(COc2ccc(C(C)(C)C)cc2)o1	0%	0.69	i	0.9	1.8	1.5	-1.8
C=CCC[C@H](Cc1ccc(F)cc1)C(=O)OC[C@@H](C)NC(=O)[C@@H](CC=C)CC(=O)N[C@H](CO)Cc1ccccc1	x	x	i	1.1	x	-4.4	-1.1
COCC1CCN(C(=O)c2cc(COc3ccc(OC)cc3Cl)on2)C1 (stereo not drawn)	-1%	x	i	x	x	-0.1	0.8
COc1ccc(/C=C/C2=NN(C)C(=O)CC2)cc1	-13%	0.67	x	14	-1.1	-4.0	x
CC1CCCC(C)N1CCNC(=O)CCn1nc(-c2ccccc2)ccc1=O (stereo not drawn)	1%	0.65	i	1.4	0.9	0.5	-3.6
COc1ccc(NC2c3ccccc3C(=O)N2c2ccccn2)cc1Cl (stereo not drawn)	-3%	0.68	i	4.7	0.7	3.5	1.2
CCC1(c2ccc(F)cc2)NC(=O)N(CC(=O)c2ccc[nH]2)C1=O (stereo not drawn)	13%	0.74	x	3.6	-1.4	4.8	x
Cc1ccc(C(=O)Nc2ccc(S(=O)(=O)N3CCc4ccccc43)cc2)o1	u	0.69	x	-0.2	-1.7	-0.5	x
COC(=O)[C@]1(C)N[C@H](CN(C)C(=O)Nc2ccccc2)[C@@H]2C(=O)N(C)C(=O)[C@@H]21	0%	0.69	i	2.3	x	-2.8	-1.0
CC(C1CC1)N(Cc1ccccc1)C(=S)Nc1ccccc1Cl (stereo not drawn)	5%	0.71	i	3.5	-2.4	-0.9	-0.8
O=C(CSCc1nc2ccccc2[nH]1)Nc1ccc2ccccc2c1	1%	0.61	x	1.8	-12	1.5	x
CC(=O)c1c(C)[nH]c(C(=O)OCc2ccc(F)cc2Cl)c1C	-3%	0.71	i	1.0	1.3	1.5	1.4
COc1cc(-c2nnc(Cn3cc(C(F)(F)F)ccc3=O)o2)cc(OC)c1OC	0%	0.72	x	6.0	0.0	-2.4	x
CCOc1ccc(-n2ccnc(SCC(=O)NCc3cccc(OC)c3)c2=O)cc1	-13%	0.68	i	-16	-0.9	-1.9	-1.3

New compounds follow
SMILES	Vif TR-FRET	Ecoli growth	FGF22 binding	UCH37 inh	RanGTP-Imp inh	HNF4A DNA FP	AF4-AF9 inh
O=C(CN1CCN(Cc2ccccc2)CC1)N/N=C/c1cccs1	x	x	i	x	1.5	3.2	1.9
Cc1cccc(N(C(=O)c2snc(C(N)=O)c2N)C(C)C(=O)NCC2CCCO2)c1 (stereo not drawn)	-3%	0.62	i	-83	2.6	1.3	2.7
CCOC(=O)C(C)(C)n1nnc(-c2ccc([N+](=O)[O-])cc2)n1	-1%	0.65	i	4.0	1.3	2.0	-3.2
Cc1cccn2c(=O)c3cc(C(=O)NCC(C)C)sc3nc12	0%	0.69	i	i	-3.6	-2.0	-3.0
Cc1cc(C)c(S(=O)(=O)Nc2ccc(C(=O)O)cc2)cc1S(=O)(=O)Nc1ccc(C(=O)O)cc1	x	0.7	x	7.4	2.9	-1.8	1.2
Cc1ccc2c(c1)C(c1ccccc1)N(C(=O)CC(C)C)CC(=O)N2 (stereo not drawn)	1%	0.69	i	1.6	3.0	0.8	1.5
O=C(NCC1CCCO1)c1cc(-c2ccncc2)nc2ccccc12 (stereo not drawn)	-2%	0.69	i	-2.1	x	0.1	0.9
COc1ccc(N2CCN(C(=O)COC(=O)c3cccc(S(=O)(=O)Nc4cccc(C)c4)c3)CC2)cc1	2%	0.72	i	0.6	3.2	1.0	1.6
CCOc1cc(NC(=S)Nc2cccc(OC)c2)c(OCC)cc1NC(=O)C1CC1	3%	0.72	x	1.2	2.0	5.5	x
Cn1c(=O)cc(SCC(=O)NCc2ccco2)c2ccccc21	10%	0.7	x	-2.3	-2.0	0.1	x
O=C1NC(c2ccccc2)Cc2ccncc21 (stereo not drawn)	-2%	0.61	i	-1.2	x	3.0	-1.7
O=C(OCC(=O)N1CCN(C(=O)c2ccco2)CC1)c1ccccc1Cc1ccccc1	2%	0.7	x	0.8	-0.3	0.4	x
Cc1ccc2nc(SCC(=O)N3CCC(C)CC3)nc(=O)n2c1	x	x	i	x	8.7	5.3	-1.1
Cc1cc2c(cc1C)-n1nnnc1C(N(C)Cc1ccccc1)C(=O)N2 (stereo not drawn)	x	x	i	x	x	-0.2	-2.3
COc1ccccc1N1CCN(C(=O)CN(C)S(=O)(=O)c2cc(C)ccc2OC)CC1	x	0.67	i	1.8	6.3	0.1	0.3
Cc1nc2cc(NC(=O)N3CCN(c4ccccn4)CC3)ccc2o1	22%	0.66	x	-1.8	-3.1	4.0	x
CCCCc1cc(=O)oc2c3c(cc(OCC(=O)N4CCC[C@H]4C(=O)O)c12)OC(C)(C)CC3	x	0.75	i	-459	-0.1	-1.4	7.3
CC(NC(=O)C1CCC1)c1ccc2c(c1)OCO2 (stereo not drawn)	24%	0.72	x	2.3	u	-0.9	x
Cc1ccc(C(=O)NCCC(=O)N2CCOCC2)cc1	3%	0.73	i	-3.4	7.5	-1.8	-11
NC(=O)c1c(NC(=O)C(=O)N2CCOCC2)sc2c1CCCC2	x	0.69	i	7.2	-2.5	0.1	-2.0
Cc1ccc(C)c(NC(=S)NCCc2c[nH]c3ccccc23)c1	33%	0.67	i	3.5	4.4	-0.4	20
Cn1nc(CC(=O)NCc2ccc(C(F)(F)F)cc2)c2ccccc2c1=O	28%	0.67	x	1.7	3.2	-1.9	x

Screens from PubChem BioAssay.
